Bioassay records (PubChem BioAssay)
Bfl-1 A1 inh: inhibitors of the anti-apoptotic protein A1, read as caspase activation | MEF A1-2A-BIM cells, Caspase-Glo 3/7 luminescence, 3 h; percent of clofoctol response, vehicle zero | 330,000 tested, 0.066% active | caspase activation, % (test concentration not listed);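 active = over half of replicate activation scores above 10%, or exactly half above 10 with the replicate mean above 10; inconclusive = replicate mean below 10 yet half the replicates above 10; inactive = over half of replicates below 10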;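 note: wells of about 30 µL received 50 nL stock; many hits fall short of the cut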
LANA-H2B inh: blocks KSHV LANA binding to histone H2A/H2B; cell-free LANA-H2A/H2B peptide, fluorescence polarization; Q9QR71; 320,000 tested, 0.6% active; inhibition, % (no concentration beside the values); AID 2629; in the data active = inhibition mostly above about 10%, no sharp cut-off; inactive = mostly below about 6.7%;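 note: stock transfer was 7.5 nL into about 10 µL; 0% = median of vehicle wells and 100% = median of positive control wells; one replicate is shown; the record names a cut of 25% in any replicate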
Target sequence (Q9QR71 whole entry, looked up): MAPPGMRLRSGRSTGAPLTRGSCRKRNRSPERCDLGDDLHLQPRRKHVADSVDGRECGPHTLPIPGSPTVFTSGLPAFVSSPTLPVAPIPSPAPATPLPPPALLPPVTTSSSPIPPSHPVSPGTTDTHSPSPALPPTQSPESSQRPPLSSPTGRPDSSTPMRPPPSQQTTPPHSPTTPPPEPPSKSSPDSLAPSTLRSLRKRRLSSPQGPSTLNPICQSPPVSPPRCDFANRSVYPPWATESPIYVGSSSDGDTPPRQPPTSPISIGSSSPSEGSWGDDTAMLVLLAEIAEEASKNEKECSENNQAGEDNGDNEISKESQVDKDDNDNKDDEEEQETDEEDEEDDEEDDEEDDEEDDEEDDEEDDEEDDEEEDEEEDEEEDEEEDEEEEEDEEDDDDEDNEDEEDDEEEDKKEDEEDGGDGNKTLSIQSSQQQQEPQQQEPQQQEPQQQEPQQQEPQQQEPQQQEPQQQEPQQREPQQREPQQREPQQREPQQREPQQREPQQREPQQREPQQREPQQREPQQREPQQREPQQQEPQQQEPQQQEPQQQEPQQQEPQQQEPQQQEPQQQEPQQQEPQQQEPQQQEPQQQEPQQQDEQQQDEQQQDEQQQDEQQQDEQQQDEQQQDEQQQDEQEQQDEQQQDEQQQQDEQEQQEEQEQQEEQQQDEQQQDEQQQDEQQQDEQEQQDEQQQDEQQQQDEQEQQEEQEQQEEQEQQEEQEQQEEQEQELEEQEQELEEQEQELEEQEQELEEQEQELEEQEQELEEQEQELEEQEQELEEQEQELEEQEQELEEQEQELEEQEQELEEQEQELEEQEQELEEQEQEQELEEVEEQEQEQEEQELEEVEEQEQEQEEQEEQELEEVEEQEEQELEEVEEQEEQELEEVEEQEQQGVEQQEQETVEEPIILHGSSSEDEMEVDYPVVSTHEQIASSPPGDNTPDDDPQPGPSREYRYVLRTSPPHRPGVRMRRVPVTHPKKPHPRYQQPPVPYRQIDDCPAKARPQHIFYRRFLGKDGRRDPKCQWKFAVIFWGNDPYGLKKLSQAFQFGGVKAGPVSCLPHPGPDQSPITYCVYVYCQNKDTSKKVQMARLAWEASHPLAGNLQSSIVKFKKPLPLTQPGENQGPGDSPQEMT
HNF4A DNA FP: change in binding of human HNF4 alpha to DNA; P41235; HNF4a-FITC DNA binding, fluorescence polarization, 1 h; activity change, % at 10 µM; 360,000 tested, 0.3% active; AID 1224865; in the data active = activity change above about 30%, passing the limit was not always enough;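 note: controls were the assay level and a saturating level of protein; the project sought stronger binding though the title names inhibitors; some compounds called inactive have numbers as strong as hits; positive values seem to mean higher polarization but the record does not say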
Vif TR-FRET: HIV-1 Vif–A3G interaction blockers – biochemical, TR-FRET, GST-Vif 1-94, biotin-A3G peptide, dose response retest, primary screen (AID 1117319); TR-FRET GST-Vif / biotin-A3G peptide binding; higher % means a stronger effect; test concentration not given here; strong numbers were not always called active; inhibition, %, or IC50 in µM where a hit was titrated; 260,000 tested, 0.57% active;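 active = above the screen mean plus three standard deviations and confirmed in dose response; inconclusive = results disagree or hit not tested in dose response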;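 note: Vif residues 1-94 fused to GST binding biotinylated APOBEC3G peptide 110-148; 0% = full assay without inhibitor and 100% = GST in place of GST-Vif; retest series ran down from 100 µM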
UCH37 inh: blocks the human deubiquitinase UCH37. 330,000 tested, 0.33% active. Q9Y5K5. purified proteasome/UCH37, Ub-AMC cleavage fluorescence. inhibition, % (no concentration beside the values);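 active = mean of two replicates above 20%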;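 note: 0% = compound-free wells with enzyme and 100% = wells lacking proteasome; stock transfer was 100 nL into about 20 µL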
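system = Proteasome-associated human UCH37 deubiquitinase | amount = 0.15 nM proteasome as dispensed | medium = pH 7.4 Tris-HCl (50 mM) with ovalbumin, ATP-MgCl2, DTT | incubation = 30 min preincubation with enzyme, 25 min cleavage at room temperature | detection = AMC fluorescence 355/460 nm | read-out basis = percent inhibition | controls = no-proteasome and no-compound wells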
B2AR ag: agonists of human beta-2 adrenergic receptor inducing internalization. Am2.2-beta2AR cells, FAP receptor internalization, flow cytometry; reference of the scale not given here. 340,000 tested, 0.43% active. response, % (concentration not given with the values). AID 504454;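 active = response above a set limit, near 3 SD of response in nonfluorescent compounds, cut at about 42% in these data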;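 note: stock transfer was 100 nL into about 11 µL; a reference agonist was the positive control; negative values mostly stem from fluorescent compounds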
Ecoli growth: E. coli growth inhibition. Escherichia coli growth, OD600, 23 h; active compounds read low. OD600 absorbance (concentration not given with the values). 330,000 tested, 0.21% active;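 active = OD600 absorbance below the run mean of sample wells minus 3.6 SD, in any replicate, cut at about 0.56 in these data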;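 note: stock transfer was 300 nL into about 60 µL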
The depositor's hits bear a star; i = inactive; ? = inconclusive; . = not tested or not shown; & = joins results of further samples.

Values run as follows: Bfl-1 A1 inh	LANA-H2B inh	HNF4A DNA FP	Vif TR-FRET	UCH37 inh	B2AR ag	Ecoli growth
CC(NC(=O)c1cc(-c2cccnc2)nc2ccc(Br)cc12)C1CCCO1 (stereo not given)
    0.8	2.3	-2.1	-5%	0.8	-6	0.7
COCC(=O)Nc1nnc(Cc2ccc(OC)cc2)s1
    -0.6	-0.3	-0.7	-5%	-4.7	-5	0.72
Cc1ccc(S(=O)(=O)N(C)C)cc1NC(=O)COC(=O)CNC(=O)c1cccs1
    -0.2	2.0	-3.1	7%	0.9	-13	0.68
COc1cc2ncc(S(=O)(=O)c3ccccc3)c(N3CCCC(C)C3)c2cc1OC (stereo not given)
    1.6	-0.1	-0.3	.	3.3	69*	0.77
Cn1c(CCc2ccccc2)nnc1SCC(N)=O
    -0.9	-7.2	-3.3	-1%	1.2	6	0.6
CCN(CC)C(=O)N1c2ccccc2CC(N(CC)CC)c2ccccc21 (stereo not given)
    0.6	-3.1	1.4	4%	-0.5	8	0.68
O=C1CCC(=O)N1CCc1c[nH]c2ccccc12
    -0.7	-2.4	2.9	25%	0.5	-9	0.74
CC(CC(=O)N(CCC1=CCCCC1)c1c(N)n(Cc2ccccc2)c(=O)[nH]c1=O)c1ccccc1 (stereo not given)
    0.8	1.0	1.6	4%	1.6	3	0.73
O=[N+]([O-])c1ccc(C2=NN(CCO)C(=Nc3ccc(OC(F)(F)F)cc3)SC2)cc1
    0.0	0.1	4.0	7%	4.7	6	0.66
Cc1ccc(NS(=O)(=O)c2c(C)[nH]c(C)c2C(=O)N2CCCCC2)cc1F
    0.1	-9.3	0.1	.	2.1	3	0.65
O=C(CN(C(=O)CCC(=O)Nc1nccs1)c1ccccc1F)NCC1CCCO1 (stereo not given)
    -1.2	-0.9	1.2	-5%&2%	0.4	-1	0.72
Cc1nn(-c2ccccc2)c(NC(=O)c2ccccc2)c1Br
    -0.4	-2.0	0.6	-1%	6.2	-1	0.67
O=C(CCCc1nc(-c2ccc(Cl)cc2)no1)N1CCOCC1
    0.6	-1.4	0.8	17%	-0.7	-3	0.7
CC(=O)c1cccc(N2C(=NC(=O)C3CCCCC3)SC3CS(=O)(=O)CC32)c1 (stereo not given)
    -0.2	-5.4	2.9	.	-1.7	-17	0.69
CC1(C)CN(c2ccccc2)N(C(=O)c2ccc(C#N)cc2)C1=O
    -0.1	3.7	-0.7	1%	2.8	2	0.62
COCc1nc2sc(C)c(C)c2c(=O)[nH]1
    0.8	0.9	0.1	-1%	-2.4	0	0.71
C=CCn1c(SCC(=O)Nc2ccc(C(=O)O)cc2)nnc1-c1cccnc1
    0.9	-1.2	-1.6	-1%	2.8	1	0.73
CN(CC(=O)Nc1ccc(N2CCOCC2)cc1)C(=O)c1ccc(O)c(Cl)c1
    1.9	-4.5	2.4	.	4.5	2	0.74
CC(C)(C)C(=O)OCCNc1nc(-c2ccccc2)nc2ccccc12
    -0.2	1.7	-3.4	0%	-2.9	-12	0.67
O=C(NC1CCCC1)C(c1ccccn1)N(C(=O)c1csnn1)c1ccccc1Br (stereo not given)
    0.5	.	2.9	2%	-1.7	-4	0.65

Complete entries as entered above. Screens in order: Bfl-1 A1 inh	LANA-H2B inh	HNF4A DNA FP	Vif TR-FRET	UCH37 inh	B2AR ag	Ecoli growth
Results for CC1(C)CN(c2ccccc2)N(C(=O)c2ccc(C#N)cc2)C1=O → -0.1	3.7	-0.7	1%	2.8	2	0.62
Results for Cc1ccc(S(=O)(=O)N(C)C)cc1NC(=O)COC(=O)CNC(=O)c1cccs1 → -0.2	2.0	-3.1	7%	0.9	-13	0.68

The results go on:
Values run as follows: Bfl-1 A1 inh	LANA-H2B inh	HNF4A DNA FP	Vif TR-FRET	UCH37 inh	B2AR ag	Ecoli growth
COc1cc(CN2CCN(Cc3cccc(OC)c3OC)CC2)cc(OC)c1
    -0.3	2.6	1.9	-11%	5.8	0	0.69
CC(=O)OCc1nc2ccccc2s1
    0.0	5.2	2.3	0%	-0.4	2	0.65
CCOC(=O)c1nc2nc(-c3cccs3)cc(C(F)(F)F)n2n1
    0.0	2.7	-0.2	-6%	i	-15	0.68
COc1ccc(-c2nn(-c3ccccc3)cc2C(=O)Nc2nccs2)cc1
    -0.4	-6.2	-2.1	2%	0.8	43*	0.77
O=C(NCCc1ccccn1)c1nc(Cn2ccc([N+](=O)[O-])n2)no1
    -0.1	1.7	-2.4	1%	2.6	0	0.68
S=C(NC1CC1)N1CCN(c2ccc(Cl)cc2)CC1
    1.5	3.0	-0.2	-11%	1.8	-3	0.67
COc1ccc(NS(=O)(=O)c2cccc(C(=O)NNC(=O)CN3C(=O)NC(C)(C)C3=O)c2)cc1
    0.2	-3.1	2.3	8%	-1.0	0	0.7
COCCNC(=S)N=Nc1c(O)[nH]c2ccc([N+](=O)[O-])cc12
    -0.2	-1.6	0.8	-3%	8.1	-2	0.7
COc1ccc(Cl)cc1NC(=O)COC(=O)c1ccc(Br)o1
    -0.6	-2.5	4.6	1%	3.2	-2	0.69
CC12CCC(C(=O)Nc3cccc(NC(=O)C45CCC(C)(C(=O)O4)C5(C)C)n3)(OC1=O)C2(C)C
    -1.0	0.1	0.1	2%	1.4	6	0.69
O=c1c(C=NCc2cccnc2)c(C(F)(F)F)[nH]n1-c1nc2ccccc2s1
    -8.4	-0.7	4.9	.	3.1	1	0.64
COc1cccc(-c2c(C(=O)N/N=C/c3ccncc3)nnn2-c2nonc2N)c1
    0.0	-14	-1.5	.	.	-4	.
O=C(O)c1cnc(N2CCOCC2)nc1
    1.0	-1.3	2.7	.	-2.0	5	0.66
Cc1cc(S(=O)(=O)NCC(c2ccc3c(c2)OCO3)N2CCOCC2)ccc1F (stereo not given)
    0.0	-1.9	-1.0	.	.	3	.
CCCCNC(=O)CSc1nc2cc3c(cc2c(=O)n1Cc1ccco1)OCO3
    -0.2	3.3	-1.9	3%	4.1	0	0.71
Cc1ccc(C)c(OCCC(=O)OCC(=O)NC2CC2)c1
    -0.2	2.5	-1.7	-5%	1.1	-2	0.69
CC1(C(=O)NC2CCCC2)CCC(=O)N1CCC1=CCCCC1 (stereo not given)
    1.5	3.6	-1.0	2%	3.2	-5	0.8
CCCOc1cccc(-c2cc(C(=O)NN)c3ccccc3n2)c1
    -2.2	0.2	-4.3	?	3.6	-22	0.68
Fc1cccc(F)c1/C=N/N1CCOCC1
    -0.2	1.3	1.8	.	.	-1	.
CCOC(=O)/C=C/C(=O)OCc1csc(CC(=O)Nc2ccccc2C)n1
    0.5	2.9	-0.2	.	3.5	14	0.68
O=C(Cc1ccc(NC(=O)C2CCN(C(=O)C3CCC3)CC2)cc1)Nc1cccc(C(=O)N2CCCC2)c1
    .	.	0.8	3%	5.4	4	0.69
CCOc1cc(NC(=O)c2ccccn2)c(OCC)cc1NC(=O)c1ccc(OC)cc1
    0.3	-5.1	0.3	25%	-36	-10	0.76
CCCCCCNC(=O)CCNC(=O)c1cc(OC)c(OC)c(OC)c1
    0.5	-0.4	3.5	6%	4.1	-6	0.73
N#CCSc1nc2c(c(=O)n1Cc1ccco1)C1(CCCC1)Cc1ccccc1-2
    -1.0	-5.0	0.0	-3%	3.0	5	0.77
CC(N=c1ccccn1C(=O)Nc1cccc(C(F)(F)F)c1)c1ccco1 (stereo not given)
    -0.5	0.7	-1.7	29%	0.1	2	0.64
C[C@@H]1CN([C@@H](C)CO)C(=O)c2cc(NC(=O)CCC(F)(F)F)ccc2O[C@H]1CN(C)Cc1ccc(Cl)c(Cl)c1
    1.0	11	0.1	-8%	6.3	-1	0.69
O=C1C(Br)=Cc2cccc3cccc1c23
    0.9	4.9	-36	-3%	-0.4	4	0.6
OC(CN1C2=NCCCN2c2ccccc21)c1ccc2c(c1)OCO2 (stereo not given)
    0.0	3.9	-1.2	-6%	3.1	-2	0.74
COc1cc(OC)cc(C(=O)N[C@H](C(=O)OCC(=O)NC(=O)c2cccn2C)C(C)C)c1
    -0.5	3.3	0.9	0%	3.2	19	0.7
CNC(=S)N1CCN(c2ccccc2OC)CC1
    0.6	1.9	1.9	24%	2.8	9	0.63
COc1ccc(-c2c(-c3cc(OC)cc(OC)c3)n(C)c3ccc(Br)cc23)cc1
    1.1	-0.4	-0.5	.	-18	6	0.75
Cc1nc([N+](=O)[O-])cn1CC(O)c1ccccc1 (stereo not given)
    0.9	0.4	0.8	10%	6.9	-4	0.68
Nc1nc(NC2CCCC2)cc(=O)[nH]1
    .	.	-2.7	-5%	4.4	-10	0.69
COc1ccc(Cl)cc1NC(=O)CN(C)CC(=O)Nc1ccc(S(N)(=O)=O)cc1
    0.4	-1.1	-0.5	.	-0.2	-4	0.68
CSC1=NCCN1C(=O)c1cccs1
    -0.8	3.2	1.8	12%	0.3	-20	0.73
O=C(COC(=O)c1ccc[nH]c1=O)Nc1ccc(N2CCCCC2)cc1
    -2.8	0.1	-1.9	.	-1.5	5	0.71
C=CCNC(=O)COc1ccc(Br)cc1Cl
    -0.3	0.4	-3.0	25%	2.6	-4	0.66
Cc1c2cnn(CC(=O)NCCCN3CC(C)CC(C)C3)c(=O)c2c(C)n1Cc1ccccc1Cl (stereo not given)
    1.5	6.3	2.5	1%	0.1	21	0.6
COc1cc(NC(=O)c2ccc(Br)o2)c(C(=O)O)cc1OC
    -1.3	1.3	2.6	-3%	9.6	14	0.7
CCn1cc(/C=C(/C#N)S(=O)(=O)c2ccccc2)cn1
    1.3	0.2	0.4	11%	6.4	-3	0.73
O=C(CS(=O)(=O)c1cn(Cc2cccc(F)c2)c2ccccc12)N1CCOCC1
    1.2	1.1	-0.5	1%	3.2	1	0.69
COc1ccc(C2CC(c3ccccc3Br)=NN2c2ccc(S(N)(=O)=O)cc2)cc1 (stereo not given)
    .	.	-1.3	-1%	-425	7	0.7
Cc1ccc(OCC(=O)Nc2cc(S(=O)(=O)N3CCOCC3)ccc2N2CCCC2)cc1
    .	.	1.2	5%	1.1	2	0.68
c1ccc(-c2nc(-c3cccnc3)n[nH]2)cc1
    -0.8	-1.4	.	.	5.8	.	0.68
CCOC(=O)c1ccc(NC(=S)NCCc2ccccc2)cc1
    -0.2	-4.4	-2.2	-4%	6.2	5	0.66
O=S(=O)(Nc1nc2ccccc2nc1N1CCc2ccccc2C1)c1ccc(Br)cc1
    -7.1	2.2	-5.2	8%	-17	-6	0.72
Cc1ccc2c(CC(=O)N(CC3CCCO3)c3c(N)n(Cc4ccccc4)c(=O)[nH]c3=O)coc2c1 (stereo not given)
    1.5	-0.9	-0.9	5%	-0.5	2	0.68
CCOC(=O)c1cc(NC(=O)c2ccc(C)cc2)c(=O)oc1-c1ccccc1
    1.0	-1.2	-1.6	-3%	1.3	4	0.74
CN(Cc1ccccc1)C(=O)c1cccc(NC(=O)Cc2ccc(NC(=O)C3CCCN(C(=O)c4ccccc4)C3)cc2)c1 (stereo not given)
    .	.	4.1	.	2.1	-16	0.69
COc1ccc(-n2ncc3c(NCC(C)C)ncnc32)cc1
    -2.6	-6.1	0.5	?	0.1	5	0.72
CC(NC(=O)C1C2C=CC(C2)C1C(=O)O)c1ccccc1 (stereo not given)
    -0.1	-5.5	-2.4	3%	4.1	-3	0.66
Cc1ccc(C)c(C2NC(=O)c3ccccc3N2)c1 (stereo not given)
    -0.3	1.3	-1.9	-3%	.	6	.
